GIV-Gai inh = inhibitors of GIV peptide binding to Galpha-i3, primary screen, biochemical, fluorescence polarization, FITC-GIV GBA peptide, rat Galphai3. Guanine nucleotide-binding protein G(i) subunit alpha-3 (Rattus norvegicus), P08753. 90 min; stronger effect = lower value; scaled: aluminum fluoride 0%, vehicle 100%. percent of control (FP), % (no concentration beside the values). hit rate 0.42% among 210,000;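 active = replicate mean at 85% of control or lower, very high polarization wells dropped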;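 note: wells of about 15 µL received 100 nL stock; the first replicate is given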
Target sequence (P08753 whole entry, looked up): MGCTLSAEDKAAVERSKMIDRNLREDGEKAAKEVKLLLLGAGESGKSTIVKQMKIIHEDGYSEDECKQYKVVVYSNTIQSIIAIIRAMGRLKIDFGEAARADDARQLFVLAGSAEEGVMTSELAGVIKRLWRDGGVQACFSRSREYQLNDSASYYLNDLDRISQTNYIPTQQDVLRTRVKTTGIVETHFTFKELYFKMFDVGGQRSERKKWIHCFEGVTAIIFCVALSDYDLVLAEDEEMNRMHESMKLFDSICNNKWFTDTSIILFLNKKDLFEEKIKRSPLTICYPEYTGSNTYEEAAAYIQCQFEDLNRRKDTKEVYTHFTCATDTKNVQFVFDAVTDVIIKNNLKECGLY
HCMV UL50-53 inh = inhibitors of HCMV UL50-UL53 interaction, biochemical, HTRF. HCMV UL50-UL53 nuclear egress complex (human cytomegalovirus). normalized percent inhibition. inhibition, % (no concentration beside the values). hit rate 0.15% among 190,000;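 active = both replicates at 50% or more, plus weaker picks with an unusually low signal ratio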;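 note: stock transfer was 100 nL into about 20 µL; 0% = negative control wells and 100% = wells with untagged competitor protein; inactives centre near -12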
Sa growth inh = S. aureus growth inhibition at 42 and 30 °C, primary screen, LtaS inhibitor project, RN4220, two temperatures. OD600, 20 h, 42 °C; stronger effect = lower value. relative growth, % (no concentration beside the values). hit rate 0.53% among 170,000. AID 720641, 2013;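 active = growth at 42 °C up to 50% and 20 or more points under that at 30 °C, or under 10% at both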;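 note: 300 nL library stock went into each well; scaled to the means of positive and negative controls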
Sa growth inh second temp = further read-out of Sa growth inh, marked with its call; relative growth, %; measured here: growth at 30 °C;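 optical density after 20 h as mean of two plates; 100% = untreated growth and lower means inhibition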
* hit, by the source's call; · = not tested or not shown; & = joins results of further samples.

Every second line gives: GIV-Gai inh	HCMV UL50-53 inh	Sa growth inh	Sa growth inh second temp
Cc1ccc(N2CC(NC(=O)CCc3ccccc3)CC2=O)cc1C (stereo unspecified)
    95.1	·	90.2	87.5
Cc1ccc(N2Cc3cc(C)c(C)cc3C2)cc1
    109.7	·	107.3	87.1
CCN(CC)CCCNC(=O)c1nn(C)c2c1CSc1ccccc1-2
    99.1	-14.7	112.4	93.8
COc1ccc2c(c1)CCc1c(C(=O)Nc3c(C)nn(Cc4ccccc4Cl)c3C)noc1-2
    108.8	12.5	100.6	104.5
O=C(Nc1cccc(Cl)c1)N1CCN(CCO)CC1
    ·	-2.1	101.6	87.6
O=C(NCC(F)(F)F)c1ccc(S(=O)(=O)N2CCCc3ccccc32)cc1
    ·	-16.6	91.7	76.3
COC(=O)N1CCCc2cc(S(=O)(=O)N3CCN(c4ccccc4)CC3)ccc21
    101.0	-7.5	98.3	92.4
O=C(Nc1cc(F)ccc1F)c1ccc(CN2CC(=O)N3CCCCC3C2=O)cc1 (stereo unspecified)
    107.7	·	105.2	88.3
Cc1cc(Br)ccc1NC(=S)Nc1cccc(NC(=O)c2ccccc2O)c1
    100.6	-32.7	50.6	43.4
CCn1c2ccccc2c2cc(NC(=O)COc3ccc(C)c(C)c3)ccc21
    101.8	20.2	108.8	99.3
O=C1CCC(c2ccccc2)CC1
    ·	-24.5	92.2	85.2
O=C(NCc1ccc(Cl)cc1)C1CCN(c2ncnc3c2nc2n3CCCCC2)CC1
    105.2	·	90.2	90.9
CCCCN1C=C(OC(=O)C(C)C)c2ccccc2S1(=O)=O
    105.1	-14.3	·	·
O=C(c1ccc2c(c1)OCCO2)N1CCN(c2ccc([N+](=O)[O-])cc2Cl)CC1
    107.0	-42.9	·	·
Cc1ccc(Cl)cc1NC(=O)c1oc2c(c1C)-c1[nH]ncc1CC2
    103.7	7.7	88.3	74.9

Next section
Every second line gives: GIV-Gai inh	HCMV UL50-53 inh	Sa growth inh	Sa growth inh second temp
CCCn1c(SCc2nc(-c3cccs3)no2)nnc1-c1ccncc1
    101.2	-6.9	103.9	83.6
O=C(N/N=C/c1ccc(OC(F)F)cc1)c1cc(-c2ccco2)nc2ccccc12
    ·	-16.9	109.2	77.5
Cc1cc(OCc2nc(C)c(C(=O)NCC3CCCO3)s2)ccc1Cl (stereo unspecified)
    107.7	-12.5	·	·
Cn1c(=O)[nH]c(=O)c2c1nc(CN1CCOCC1)n2CCCc1ccccc1
    106.1	3.8	99.2	78.8
FC(F)(F)Oc1ccc(N=Cc2cccs2)cc1
    ·	-28.8	137.6	87.0
Cc1ccc(C)c(N2CCN(CCCNC(=O)Nc3ccc(Cl)cc3)CC2)c1
    108.4	2.0	115.1	87.3
O=C(O)CCc1nc2cc3ccccc3cc2[nH]1
    101.6	-80.2	102.0	94.8
Cc1cccc(-n2c(=O)c3c(c4cc(C)ccc4n3C)n(C)c2=O)c1
    108.6&105.9	-16.1	110.3	88.8
Cc1ccc(C)n1-c1nnc(N2CCCC(C(=O)NCc3cccc(Cl)c3)C2)s1 (stereo unspecified)
    99.5	-22.9	118.6	84.5
CC(CCCC(C)(C)O)CC1OCC(C)O1 (stereo unspecified)
    105.6	2.3	114.2	111.0
O=C(Cn1[nH]c(=O)c2ccccc2c1=O)N1CCc2ccccc2C1
    ·	-0.8	110.9	104.9
Oc1ccc(-c2ccccc2)c(F)c1
    106.3	2.4	·	·
Cc1ccc(OCC(O)CN2C(=O)c3ccccc3C2=O)cc1 (stereo unspecified)
    105.3	-28.8	105.2	80.8
CC1(C)C(=O)Nc2ccccc2N1C(=O)Cn1cnc2sccc2c1=O
    ·	1.6	96.3	74.8
CN(C)c1cccc(C(=O)N2N=C(C(F)F)CC2(O)C(F)F)c1 (stereo unspecified)
    100.4	-29.2	88.6	86.0

Individual results from the results shown.
Cc1cc(OCc2nc(C)c(C(=O)NCC3CCCO3)s2)ccc1Cl (stereo unspecified) @ GIV-Gai inh: 107.7
O=C(Cn1[nH]c(=O)c2ccccc2c1=O)N1CCc2ccccc2C1 @ Sa growth inh: 110.9

Going on with the list.
Every second line gives: GIV-Gai inh	HCMV UL50-53 inh	Sa growth inh	Sa growth inh second temp
Nc1ccc(Oc2ccc3c(c2)C(=O)N(CCO)C3=O)cc1
    99.0	-118.8	88.2	76.9
Cc1ccccc1CNC(=O)Cn1ccc2cc(S(=O)(=O)N3CCCCC3)ccc21
    105.6	·	113.8	98.7
NC1=NC(=O)/C(=C\c2ccc(OC(=O)c3ccccc3Cl)cc2)S1
    102.2	-2.7	·	·
CC(C)c1ccc(OCc2ccc(C(=O)OCCN3CCCCC3)o2)cc1
    104.9	-23.8	105.4	81.0
Cc1csc(C(C#N)C(=O)CSc2nncn2-c2ccccc2)n1 (stereo unspecified)
    ·	-34.3	103.9	89.2
CCN(CC(=O)NCc1cccs1)C(=O)c1ccc(C)s1
    ·	4.2	96.2	98.4
CCOc1ccccc1CNC(=O)C1CCN(S(=O)(=O)c2ccc3[nH]c(=O)ccc3c2)CC1
    101.6	·	103.7	85.0
Fc1ccc(Nc2nc3ccccc3c3nncn23)cc1F
    111.2	-3.0	·	·
Cc1ccc(-n2cnnn2)cc1S(=O)(=O)NC(C)(C)C
    100.1	-17.3	104.9	73.2
CC(C)(C)SC(=O)c1cccnc1SCCS(=O)(=O)c1cccc(C(F)(F)F)c1
    101.4	-23.9	87.1	95.8
CCOC(=O)c1c(C)n(-c2ccccc2)c2ccc(OC(=O)c3c(-c4ccccc4Cl)noc3C)cc12
    105.6	6.0	·	·
CCOC(=O)c1oc2cc(N)ccc2c1C
    103.5	-45.5	104.3	85.9
CCCN(C(=O)c1oc(=O)c2ccccc2c1-c1ccccc1)c1ccccc1OC
    104.1	5.9	108.0	99.5
CCOC(=O)c1cc2c(Cl)cc(Cl)cc2n1C(=O)OC(C)(C)C
    102.5	-6.4	119.8	96.8
Cc1ccc(C)c(CSc2nncn3c2cc2occc23)c1
    121.5	·	82.8	69.7

More structures.
Every second line gives: GIV-Gai inh	HCMV UL50-53 inh	Sa growth inh	Sa growth inh second temp
CC1CCCN(C(=O)CSc2ncnc3ccccc23)C1 (stereo unspecified)
    ·	-5.5	100.5	92.6
CCCOc1ccc(C(=O)Nc2ccc3c(c2)Cc2ccccc2-3)cc1
    101.9	·	98.3	81.2
Cc1cccc(N2CCN(C(=O)CCCn3c(=O)[nH]c4ccc(Br)cc4c3=O)CC2C)c1 (stereo unspecified)
    101.7	-25.2	·	·
O=C(NCCc1ccccc1)C1CCCN(S(=O)(=O)c2ccc3[nH]c(=O)oc3c2)C1 (stereo unspecified)
    102.4	-15.8	104.7	89.2
O=C1/C(=C/c2ccco2)Cc2ccccc21
    102.4	·	105.2	64.1
O=S(=O)(c1ccccc1)N1N=C(c2ccccc2)CC1c1ccc(Cl)cc1 (stereo unspecified)
    105.4	-7.1	·	·
Cc1ccc(C(=O)OCC2OC(C#N)CC2OC(=O)c2ccc(C)cc2)cc1 (stereo unspecified)
    104.0	-6.8	111.3	93.4
CCOC(=O)C(CC)n1nc(C)c2c(C)n(-c3ccc(C)cc3)nc2c1=O (stereo unspecified)
    108.4	-3.1	83.2	79.4
NS(=O)(=O)c1ccc(CCNC(=O)c2ccc(S(=O)(=O)N3CCCCC3)cc2)cc1
    ·	-13.1	93.1	93.8
CCCCn1c(=N)c(C(=O)NC2CCCCC2)cc2c(=O)n3cccc(C)c3nc21
    107.6	-70.8	106.3	91.4
CCCCN(CC)CCCNC(=O)C1CCCN(c2ncnc3c2nc2n3CCCCC2)C1 (stereo unspecified)
    106.9	·	116.3	99.2
Cc1ccc(-c2nnc(N3CCCCC3)c3ccccc23)cc1S(=O)(=O)NCc1ccccn1
    ·	-17.4	110.6	87.7
CCc1ccc(NC(=O)Cn2ncn3cccc3c2=O)cc1
    97.1	·	109.6	91.8
CCC(CC)c1nc2ccccc2n1C
    ·	-21.1	112.5	91.8
Cc1cc(C(=O)O)c(C)n1-c1cc(C(F)(F)F)cc(C(F)(F)F)c1
    101.5	-30.7	94.4	98.3

Next part:
Every second line gives: GIV-Gai inh	HCMV UL50-53 inh	Sa growth inh	Sa growth inh second temp
O=S(=O)(Cc1ccccc1Cl)N1CCN(Cc2ccc3c(c2)OCO3)CC1
    ·	2.9	103.3	85.9
CCOC(=O)c1c(C)n(C)c2c1cc(OC(=O)c1ccccc1F)c1ccccc12
    99.0	0.8	·	·
C=CCn1c(SCc2cccc(C#N)c2)nnc1C12CC3CC(CC(C3)C1)C2
    100.0	-16.6	92.3	94.6
CCOC(=O)c1ccc(NC(=O)c2ccco2)cc1
    ·	-2.8	94.2	62.3
CN1CC(=O)Nc2ccccc2C1=O
    106.9	3.7	96.7	96.2
CCCS(=O)(=O)Nc1cc(-c2cn3cccc(C)c3n2)ccc1C
    98.6	-4.8	99.7	86.8
CCSc1nnc2c(n1)OC(c1ccc(OC)cc1OC)N(C(C)=O)c1ccccc1-2 (stereo unspecified)
    101.6	-82.4	102.8	84.2
CNC(=O)c1ccc(Cn2c(=O)c3cc(OC)c(OC)cc3n(CC(=O)NC3CCCC3)c2=O)cc1
    104.1	-21.9	·	·
Cc1[nH]ccc(=O)c1OCc1ccccc1
    106.9	8.9	·	·
C=CCn1c2ccc(Br)cc2c2n[nH]c(=S)nc21
    ·	-23.5	118.9	79.3
Cc1nc2ccccc2c(=O)o1
    ·	-11.7	99.1	87.9
O=S1(=O)N=C(Nc2nc(-c3ccccc3)cs2)c2ccccc21
    ·	-20.3	109.0	79.7
Cn1nc(CC(=O)Nc2nn[nH]n2)c2ccccc2c1=O
    102.3	·	90.2	83.2
CN1C(=O)/C(=C/c2ccccc2Cl)Sc2ccc(C(=O)N3CCN(C(=O)c4ccco4)CC3)cc21
    104.1	-17.9	114.9	76.0
COc1ccc(C2CC(c3ccc(Br)cc3)=NN2C(=O)CCC(=O)O)cc1OC (stereo unspecified)
    108.4	-12.7	·	·

Next entries:
Every second line gives: GIV-Gai inh	HCMV UL50-53 inh	Sa growth inh	Sa growth inh second temp
CCOC(=O)Cc1csc(NC(NC(=O)CC)(C(F)(F)F)C(F)(F)F)n1
    118.5	4.1	101.2	115.4
COc1ccc(-c2noc(CN3CCCCC3)n2)cc1OC
    116.4	-10.6	104.1	104.8
COc1ccc2cc3cc(C(=O)NCCc4ccc(OC)c(OC)c4)oc3nc2c1
    104.5	-17.8	131.4	108.2
COc1ccc(CNc2nn3cnnc3c3ccccc23)cc1
    110.4	-25.5	·	·
CC(CCc1ccccc1)NC(=O)C1CCN(S(=O)(=O)N2CCOCC2)CC1 (stereo unspecified)
    101.0	·	107.7	83.2
N#C/C(=C\c1cn(CCOc2ccccc2)c2ccccc12)C(=O)N1CCCC1
    99.4	-31.4	109.8	100.6
Fc1ccc(C(CCCN2CCN3CCCCCC3C2)c2ccc(F)cc2)cc1 (stereo unspecified)
    ·	-7.7	117.8	52.8
COc1ccc(-c2noc(CSc3ccc(-c4ccc5c(c4)OCO5)nn3)n2)c(OC)c1
    108.9	-15.6	·	·
CCn1c(SCc2ccccc2)nnc1-c1nonc1NC(C)=O
    98.8	3.9	100.5	90.7
O=C(NCCO)c1c(Cl)nc2ccccn12
    ·	-21.5	92.7	88.6
CCOc1ccccc1NC(=O)C(C)Sc1nc(-c2ccccc2)c(C#N)c(=O)[nH]1 (stereo unspecified)
    105.0	-23.5	111.4	88.3
Cc1ccc(S(=O)(=O)Nc2nc3n(n2)C(c2ccccc2Cl)C=C(c2ccccc2)N3)cc1 (stereo unspecified)
    107.5	-5.4	33.9	13.9
O=c1c2cccnc2nc(SCc2cc(=O)n3ccccc3n2)n1Cc1ccc(F)cc1
    99.7	9.1	·	·
Cc1ccc(CNC(=O)c2ccc(Cl)cc2)c(=S)[nH]1
    ·	-14.9	74.1	55.2
O=S(=O)(Nc1ccccn1)N1CCCCCC1
    103.2	0.5	87.0	81.0

Of the compounds above, four contain bromine.
Every second line gives: GIV-Gai inh	HCMV UL50-53 inh	Sa growth inh	Sa growth inh second temp
Cc1cc(Br)ccc1NC(=S)Nc1cccc(NC(=O)c2ccccc2O)c1
    100.6	-32.7	50.6	43.4
Cc1cccc(N2CCN(C(=O)CCCn3c(=O)[nH]c4ccc(Br)cc4c3=O)CC2C)c1 (stereo unspecified)
    101.7	-25.2	·	·
C=CCn1c2ccc(Br)cc2c2n[nH]c(=S)nc21
    ·	-23.5	118.9	79.3
COc1ccc(C2CC(c3ccc(Br)cc3)=NN2C(=O)CCC(=O)O)cc1OC (stereo unspecified)
    108.4	-12.7	·	·

Next part:
Every second line gives: GIV-Gai inh	HCMV UL50-53 inh	Sa growth inh	Sa growth inh second temp
Cc1sc(C)c(CNc2ccccc2)c1CNc1ccccc1
    ·	-13.1	105.0	90.7
COc1c(N2CCNC(C)C2)c(F)cc2c(=O)c(C(=O)O)cn(C3CC3)c12 (stereo unspecified)
    105.0	-30.4&-43.1&-8.6	-0.9*	-0.5*
Cc1ccccc1N=C1C(=O)N(CN2CCC(C)CC2)c2ccccc21
    108.3	·	82.9	82.5
CN(C)S(=O)(=O)c1ccc(NC(=O)COc2ccccc2)cc1
    104.3	1.7	103.6	105.6
Cc1cccnc1NC(=O)c1cc2ccccc2oc1=O
    ·	-25.7	93.4	94.0
Cc1noc2c1C(C(C)C)C1=C(CC(c3ccccc3)CC1=O)N2 (stereo unspecified)
    106.8	3.9	·	·
COc1ccc(-c2noc(COc3cc(C)c(Br)c(C)c3)n2)cc1OC
    103.8	-9.8	118.2	90.5

Compound activity (PubChem)
